Cruzain inh Det: qHTS Assay for Promiscuous and Specific Inhibitors of Cruzain (with detergent). Cruzipain (Trypanosoma cruzi), P25779. purified cruzain, Z-FR-AMC fluorescence, 0.01% Triton. Potency, µM, for inactives: max response, negative = inhibition, actives largely listed as inhibitors. 200,000 compounds, 0.43% hits. AID 1478, 2009;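 further: plate controls were neutral wells for no effect and buffer without enzyme for full effect; nearly all actives have a fitted effect of over 40% in size; top concentration of the series not given in the record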
Target sequence (P25779 123-467 limits assumed): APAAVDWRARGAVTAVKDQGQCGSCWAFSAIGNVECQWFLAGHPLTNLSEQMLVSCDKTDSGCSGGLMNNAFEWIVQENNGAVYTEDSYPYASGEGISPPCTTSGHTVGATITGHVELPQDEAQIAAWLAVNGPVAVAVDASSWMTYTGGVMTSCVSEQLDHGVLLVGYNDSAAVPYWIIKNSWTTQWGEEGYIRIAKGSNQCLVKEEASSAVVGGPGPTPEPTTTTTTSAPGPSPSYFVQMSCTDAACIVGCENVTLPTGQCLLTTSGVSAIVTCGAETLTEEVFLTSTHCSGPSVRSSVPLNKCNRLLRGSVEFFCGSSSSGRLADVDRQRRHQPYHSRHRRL
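Sodium acetate buffer (100 mM, pH 5.5) containing 5 mM DTT and 0.01% Triton X-100 hosted 1.5 nM cruzain and test compound for 15 min at room temperature. Cleavage of 2 uM Z-FR-AMC was then tracked by fluorescence.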
RE007 growth inh: qHTS Assay for Inhibitors of the HIV-1 protein Vpr. S. pombe RE007 Vpr strain, BacTiter-Glo ATP luminescence, 24 h; control for the full effect not named in the record. Potency, µM (highest dose often 92.2 µM), inactives show at the top dose activity change, negative = less growth. 360,000 compounds, 0.21% hits. AID 651644, 2012; active = well fitted falling curve with a large enough effect; inconclusive = small, poorly fitted or top-dose-only effect; inactive = no such curve, though single readings can be large or run the other way;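 further: on the % scale 0 is the no-effect control and ±100 the full control effect; nearly all actives have a fitted effect of over 50% in size; the assay follows cell death caused by Vpr and the record does not say whether a fall means rescue or toxicity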
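Fission yeast strain RE007, carrying one chromosomally integrated HIV-1 vpr copy, was seeded at OD 0.01 in PMG+AL medium with 23 nL pinned compound. After 24 h at 30 °C and 99% humidity, viability was read by BacTiter-Glo luminescence.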
NS1 inh: qHTS Assay for Inhibitors of Influenza NS1 Protein Function. S. cerevisiae slowed by influenza A NS1, growth recovery by OD600. Potency, µM (highest dose often 46.1 µM), without a hit: at the top dose activity, positive = more growth. 270,000 compounds, 0.4% hits; active means well fitted rising curve with a large enough effect; inconclusive means small, poorly fitted or top-dose-only effect; inactive means no such curve, though single readings can be large or run the other way; further: nearly all actives have a fitted effect of over 50% in size
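OD600 was taken as the measure of yeast growth restored by compound in an NS1-expressing S. cerevisiae strain. Cells had been washed out of glucose medium and diluted 1:100 into galactose -URA medium, pH 6.0.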
LASV entry inh: qHTS for Inhibitors of binding or entry into cells for Lassa Virus. Lassa virus pseudotype entry inhibition, cell reporter; control for the full effect not named in the record. Potency, µM (doses to about 37.9 µM), without a hit: at the top dose activity change, negative = inhibition, usual class: inhibitors. 300,000 compounds, 1.2% hits; active means well fitted inhibition curve with a large enough effect; inconclusive means small, poorly fitted or top-dose-only effect, or effect the other way; inactive means flat fitted curve, though single readings scatter; tested in HEK293 cells; further: on the % scale 0 is the no-effect control and ±100 the full control effect; nearly all actives have a fitted effect of over 50% in size; luciferase read-out
Cruzain noTriton: qHTS Assay for Promiscuous and Specific Inhibitors of Cruzain (without detergent). purified cruzain, Z-FR-AMC fluorescence, no detergent. Potency, µM, for inactives: max response, negative = inhibition, hits mostly inhibitors. Cruzipain (Trypanosoma cruzi), P25779. 200,000 compounds, 2.3% hits. AID 1476, 2009;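 further: plate controls were enzyme without inhibitor for no effect and buffer without enzyme for full effect; nearly all actives have a fitted effect of over 40% in size; top concentration of the series not given in the record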
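Detergent-free condition (0.00005% Triton X-100) in acetate buffer pH 5.5 with DTT. 1.5 nM enzyme and compound were pre-mixed 15 min, then 2 uM Z-FR-AMC substrate added; reaction progress from fluorescence change between first and third reads (60 s).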
SARS PLP yeast: qHTS of Yeast-based Assay for SARS-CoV PLP. S. cerevisiae expressing SARS-CoV PLpro, growth rescue; control for the full effect not named in the record. Potency, µM (series often up to 32.9 µM), without a hit: top-dose activity, positive = growth rescue. 330,000 compounds, 0.19% hits. AID 485353, 2010; active means well fitted rising curve with a large enough effect; inconclusive means small, poorly fitted or top-dose-only effect; inactive means no such curve, though single readings can be large or run the other way; further: 0% is about no effect; nearly all actives have a fitted effect of over 55% in size; growth read by luminescence after 48 h
StopGo reporter: High Throughput Screening for Foot and Mouth Disease Virus Antivirals; human cells with a luciferase reporter of 2A StopGo recoding; control for the full effect not named in the record; Potency, µM (titrated, usually from 57.9 µM), for the others: at the top dose signal change, negative = less light; 410,000 compounds, 1.2% hits; AID 1159524, 2015; active = well fitted falling curve with a large enough effect; inconclusive = small, poorly fitted or top-dose-only effect; inactive = no such curve, though single readings can be large or run the other way; tested in HEK293T cells; further: on the % scale 0 is the no-effect control and ±100 the full control effect; nearly all actives have a fitted effect of over 45% in size; luciferase light after 4 h
Marburg entry inh: qHTS for inhibitors of binding or entry into cells for Marburg Virus; Marburg virus pseudotyped entry inhibition, cell reporter; control for the full effect not named in the record; about a third of the inactives were read at about 46 µM; Potency, µM (doses to about 37.8 µM), for the others: at the top dose activity change, negative = inhibition, most hits filed as inhibitors; 300,000 compounds, 1.8% hits; AID 540276, 2011; active = well fitted inhibition curve with a large enough effect; inconclusive = small, poorly fitted or top-dose-only effect, or effect the other way; inactive = flat fitted curve, though single readings scatter; tested in HEK293 cells; about a fifth of its hits are not listed in these tables; further: on the % scale 0 is the no-effect control and ±100 the full control effect; luciferase read-out
Active calls of the source: *; ? = inconclusive; / = no result given; & = joins results of further samples; [ ] = another dose, or the depositor's remark. Unless noted, the call rests on the fitted dose curve; in most records, active means well fitted curve in the direction sought with a large enough effect; inconclusive means small, poorly fitted or top-dose-only effect, or another doubt; inactive means no such curve, though single readings can be large; an effect the other way counts as inactive or inconclusive. Potency means the concentration at half of the fitted maximal effect.

SMILES	Cruzain inh Det	RE007 growth inh	NS1 inh	LASV entry inh	Cruzain noTriton	SARS PLP yeast	StopGo reporter	Marburg entry inh
COc1ccc(CNC(=O)CCc2c(C)nc3c(c2C)c(=O)n(C)c(=O)n3C)cc1	1.7%	/	/	4%[46.1 µM]	0%	/	10%	0%[46.1 µM]
Cc1cccn2c(=O)c(C=Nc3ccc(Cl)cc3)c(NCCO)nc12	-8.9%	8%	-17%	-15%	3%	3%	-11%	-9%&-9%
O=C(/C=C/c1ccccc1)N1CCN(CCN2C(=O)c3cccc4cccc(c34)C2=O)CC1	-1.7%	-3%	-7%	-15%	-4%	0%	?	-22%
Fc1ccc(-c2noc3ncnc(NCC4CCN(Cc5ccc(Cl)cc5)CC4)c23)cc1	-3.0%	/	/	?	2%	/	-1%	/
COc1ccccc1OCCn1c(NC(=O)c2ccccc2)nc2ccccc21	0.7%	/	/	1%[46.1 µM]	1%	/	-6%	/
CC1(C)CC(=O)C(C=NCCN2CCN(C(=O)NC34CC5CC(CC(C5)C3)C4)CC2)=C(O)C1	6.2%	11%	-23%	23%	17%	-1%	-27%	?
COCc1cc(C)n(CC(=O)Nc2ccc(Cl)cc2Cl)c(=O)c1C#N	-3.3%	19%	-9%	-13%	11%	5%	-18%	4%
O=C(NC1CCCCCC1)c1ccc2c(=O)n3c(nc2c1)CCCCC3	-9.8%	0%	-49%	-30%	4%	3%	-14%	?
c1ccc(-c2nc3nonc3c3nc4ccccc4n23)cc1	-6.5%	6%	-11%	-12%	?	-1%	/	2%
Cc1ccc(C)c(CN2C(=O)C3(c4ccccc42)N(c2cccc(C(F)(F)F)c2)C(=O)CS3(=O)=O)c1 (stereo not given)	-6.5%	/	/	?	1.3µM*	/	-26%	?
COc1ccc(NC(=O)C2CCN(S(=O)(=O)c3c(C)nn(C)c3C)CC2)cc1	/	-2%	-2%	-3%[46.1 µM]	/	3%	-13%	1%[46.1 µM]
CC(C)c1ccccc1NC(=O)CC1(CC(=O)O)CCCC1	/	-18%	1%	12%	/	1%	-7%	1%
COc1ccccc1-n1cnnc1SCC(=O)NCC1CCCO1 (stereo not given)	/	2%	/	1%[46.1 µM]	/	2%	-10%	0%[46.1 µM]
CCN(CC)S(=O)(=O)c1cc(NS(=O)(=O)c2ccccc2)ccc1C	-6.0%	7%	-1%	-2%	-3%	-5%	25%	?
CC1CCCN(C(=O)C(Cc2ccccc2)n2cccc2)C1 (stereo not given)	-4.1%	-3%	-16%	/	7%	-6%	-3%	/
CCCCc1cc(=O)oc2c(C)c(OCC(=O)NCC3CCC(C(=O)O)CC3)ccc12 (stereo not given)	/	-4%	29%	/	/	13%	-14%	/
CN1CCN(/N=C/c2nc(-c3ccc(Cl)cc3)n3ccccc23)CC1	-11%	-1%	?	26%	4%	0%	5%	?
Cc1cccn2c(=O)c(/C=C(\C#N)C(=O)NCc3ccco3)c(N3CCCCCC3)nc12	/	16%	7%	/	/	-2%	0%	/
COc1ccccc1CNC(=O)c1cc(S(=O)(=O)N2CCOCC2)cn1C	/	4%	-6%	/	/	7%	-19%	/
COc1ccc(OC)c(C2/C(=C(/O)c3ccc(C)cc3)C(=O)C(=O)N2Cc2ccco2)c1 (stereo not given)	-6.9%	7%	-3%	14%	-4%	10µM*	10%	-24%[46.1 µM]
Cc1nc2ccccc2nc1OCC(=O)NCC(F)(F)F	-0.7%	-2%	5%	5%	5%	2%	-14%	-3%
COc1cccc(-c2cc(C(=O)Nc3ccc4c(c3)OCO4)no2)c1	-2.4%	2%	-7%	21%[46.1 µM]	-1%	-5%	35%&23%[activator]	-23%&10%[46.1 µM]
O=C(CSC1=Nc2ccccc2C2CC=NN12)NCc1ccco1 (stereo not given)	/	-13%	/	?	/	-28%	?	?
Cc1nn(C)c(C)c1C1Nc2ccccc2C(=O)N1O (stereo not given)	-0.9%	0%	-7%	-1%	5%	16%	1%	0%
Cc1cccc2sc(NC(=O)CSCc3ccccc3)nc12	-7.2%	-26%	-2%	?	-9%	5%	-11%	?
NC(=O)c1ccc(NC(=O)COC(=O)C2CC(=O)N(Cc3ccccc3)C2)cc1 (stereo not given)	/	-23%	/	1%[46.1 µM]	/	2%	-1%	-4%[46.1 µM]
COc1ccc(CCN2CCCn3c2nc2c3c(=O)n(CC(C)C)c(=O)n2C)cc1OC	/	3%	0%	/	/	-1%	?	/
CN(C(=O)CSc1ncnc2scc(-c3ccccc3)c12)C1CCS(=O)(=O)C1 (stereo not given)	/	-10%	-2%	-1%	/	1%	-9%	0%[46.1 µM]
CSc1ccc(C(=O)C2CCCN(C(=O)CCc3c(C)nn(C)c3C)C2)cc1 (stereo not given)	/	13%	/	?	/	/	?	?
CC(C)OC(=O)COc1cc(O)c2c(=O)cc(-c3ccccc3)oc2c1	/	-3%	-3%	/	/	3%	-15%	/
Cc1cccc(N2CCN(C(=O)c3cccn4c(=O)c5c(C)c(C)sc5nc34)CC2)c1C	-2.0%	7%	6%	?	2%	1%	12%	?
O=C1COc2ccc(C(=O)COC(=O)c3nc(Cl)ccc3Cl)cc2N1	/	8%	/	12%	/	-3%	-20%	25%
O=C(CN1CCOCC1)Nc1ncccn1	8.6%	18%	9%	1%	-6%	-4%	6%	10%
COc1ccc(Cl)cc1NC(=O)CSc1nnc(Cc2cccn2C)n1-c1ccc(F)cc1	-3.3%	-8%	-65%	-28%	?	-1%	2%	-30%&-30%
NC(=O)COC(=O)c1ccccc1OCc1ccccc1	/	3%	3%	10%[46.1 µM]	/	-2%	-9%	18%[46.1 µM]
CC(C)(C)NC(=O)CSc1nc(N)cc(=O)[nH]1	/	1%	/	1%[46.1 µM]	/	1%	-2%	0%[46.1 µM]

Some of the entries above, reformatted.
| compound | Cruzain inh Det | RE007 growth inh | NS1 inh | LASV entry inh | Cruzain noTriton | SARS PLP yeast | StopGo reporter | Marburg entry inh |
| --- | --- | --- | --- | --- | --- | --- | --- | --- |
| CSc1ccc(C(=O)C2CCCN(C(=O)CCc3c(C)nn(C)c3C)C2)cc1 (stereo not given) | / | 13% | / | ? | / | / | ? | ? |
| NC(=O)COC(=O)c1ccccc1OCc1ccccc1 | / | 3% | 3% | 10%[46.1 µM] | / | -2% | -9% | 18%[46.1 µM] |
| Cc1cccc2sc(NC(=O)CSCc3ccccc3)nc12 | -7.2% | -26% | -2% | ? | -9% | 5% | -11% | ? |
| Cc1cccc(N2CCN(C(=O)c3cccn4c(=O)c5c(C)c(C)sc5nc34)CC2)c1C | -2.0% | 7% | 6% | ? | 2% | 1% | 12% | ? |

(cont.)
SMILES	Cruzain inh Det	RE007 growth inh	NS1 inh	LASV entry inh	Cruzain noTriton	SARS PLP yeast	StopGo reporter	Marburg entry inh
CCOc1ccccc1N1CC(C(=O)Nc2cc(S(C)(=O)=O)ccc2Cl)CC1=O (stereo not given)	/	0%	/	-11%	/	-4%	-17%	-4%
CCNC(=O)C(CC(C)C)NC(=O)C(CO)NC(=O)C1CCC(=O)N1 (stereo not given)	/	-17%	-2%	/	/	-2%	-7%	/
O=C1CC2(CCN(C(=O)C3CC(=O)N(c4ccc(F)cc4)C3)CC2)Oc2ccccc21 (stereo not given)	/	15%	/	-20%	/	0%	?	-1%
CN(CC(=O)Nc1c(Cl)cccc1Cl)C(=O)c1ccccc1Cc1ccccc1	/	-1%	/	-9%[46.1 µM]	/	7%	-3%	-16%
COc1cc(Nc2nc(-c3ccccc3)c3cc(C)ccc3n2)cc(OC)c1OC	-3.7%	4%	-9%	?	-1%	-4%	?	?
Cc1ccc(-c2nn(C)c(=O)c3ccccc23)cc1CNC(=O)Cn1nc(-c2ccccc2)c2ccccc2c1=O	-3.2%	/	6%	/	14%	1%	/	/
COc1cccc(C(=O)N2CCN(C(=O)c3cccc(F)c3)CC2)c1	0.3%	-11%	-4%	21%	8%	2%	-12%	?
CCn1c(N2CCN(CC(=O)c3c[nH]c4ccccc34)CC2)nc2c1c(=O)[nH]c(=O)n2C	2.7%	0%	-52%	0%	3%	8%	0%	0%
Cc1ccsc1/C=C1/SC(N2CC(C)OC(C)C2)=NC1=O (stereo not given)	-13%	14%	10%	8%	2%	-11%	20%	2%
COc1cc2nc(=S)n3[nH]c(CCn4nc(C)cc4C)nc3c2cc1OC	-11%	-1%	-3%	?	?	3%	-2%	?
CCSc1nnc(Nc2ccc(C)cc2)s1	-3.2%	-18%	-12%	?	-7%	6%	79%[activator]	11%
O=C(Cc1ccccc1)c1c[nH]c(C(=O)NCCCN2CCOCC2)c1	/	16%	/	4%	/	-2%	9%	-4%[46.1 µM]
CC(=O)c1ccccc1C(=O)N1CCC(n2nccc2NC(=O)C2CC2)CC1	/	2%	4%	3%	/	?	-3%	4%
O=c1cc(-c2ccccc2)n2c(SCc3cccc([N+](=O)[O-])c3)nnc2[nH]1	-0.4%	/	/	3%[46.1 µM]	16%	/	-6%	/
Nc1nc(-c2cccs2)cs1	-1.0%&-2.9%	-5%	-4%&-11%	23%	-9%&0%	-5%	/	24%&24%&24%
COc1ccc(/C(=C/c2ccc(OC(F)F)c(OC)c2)C(=O)O)cc1OC	-2.0%	-1%	3%	-2%	-7%	3%	-18%	4%
Cc1cc(Cl)c(S(=O)(=O)NC(C(=O)O)c2ccccc2)cc1OCC(N)=O (stereo not given)	1.8%	-3%	2%	11%	-2%	3%	14%	-5%
COc1ccccc1CNC(=O)CN1C(=O)NC(Cc2ccccc2)(c2ccccc2)C1=O (stereo not given)	/	-6%	/	-18%	/	0%	-10%	?
CCCCOc1c(Cl)cc(C(=O)N2CCN(CC(=O)N3CCCC3)CC2)cc1OCC	/	-10%	/	5%	/	-5%	-29%	-41%

Screening results as filed in PubChem BioAssay.
